KAT2A inh = blocks human GCN5L2 histone acetyltransferase; Q92830; GCN5L2 HAT assay, ThioGlo1 CoA-SH fluorescence; Potency, µM (highest dose often 58.9 µM), without a hit: at the highest dose activity change, negative = inhibition, actives largely listed as inhibitors; 0.21% of 390,000 active
Target sequence (Q92830 whole entry, looked up): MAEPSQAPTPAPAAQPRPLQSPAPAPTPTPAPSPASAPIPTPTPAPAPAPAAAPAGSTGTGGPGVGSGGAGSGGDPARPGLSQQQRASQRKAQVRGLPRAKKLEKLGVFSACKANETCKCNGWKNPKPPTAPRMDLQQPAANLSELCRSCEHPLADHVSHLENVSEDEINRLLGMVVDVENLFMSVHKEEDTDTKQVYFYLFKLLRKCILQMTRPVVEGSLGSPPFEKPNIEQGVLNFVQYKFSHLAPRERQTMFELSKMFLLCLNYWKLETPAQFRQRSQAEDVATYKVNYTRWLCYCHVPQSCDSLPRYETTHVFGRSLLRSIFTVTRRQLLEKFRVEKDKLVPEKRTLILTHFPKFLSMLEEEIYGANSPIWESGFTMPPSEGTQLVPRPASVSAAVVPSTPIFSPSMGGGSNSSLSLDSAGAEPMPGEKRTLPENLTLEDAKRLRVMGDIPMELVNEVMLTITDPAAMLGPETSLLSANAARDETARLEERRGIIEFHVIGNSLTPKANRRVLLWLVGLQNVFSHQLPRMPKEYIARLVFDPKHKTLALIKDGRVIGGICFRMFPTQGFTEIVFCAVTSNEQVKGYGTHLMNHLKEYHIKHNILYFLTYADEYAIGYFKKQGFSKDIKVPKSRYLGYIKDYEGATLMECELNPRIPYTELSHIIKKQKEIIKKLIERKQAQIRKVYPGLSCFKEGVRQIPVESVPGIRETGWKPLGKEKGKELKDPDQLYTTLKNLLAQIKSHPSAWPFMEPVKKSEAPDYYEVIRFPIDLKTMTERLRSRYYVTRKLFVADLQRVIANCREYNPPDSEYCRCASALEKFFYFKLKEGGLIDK
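Free CoA generated was detected with ThioGlo1 (50uM) fluorescence at Ex340nm/Em540nm, read immediately and after 20 min at room temperature. Enzyme, 20 nM in HEPES pH 7.5 buffer, saw compounds 15 min before adding 75uM H3(1-25) peptide and 70uM acetyl-CoA.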
N370S GC = inhibitors or activators of N370S glucocerebrosidase for Gaucher disease | P04062 | N370S GC spleen homogenate, 4MU-glucoside fluorescence | Potency, µM (titrated, usually from 59.4 µM), for the others: at the highest dose activity change, negative = inhibition, usual class: inhibitors | 0.092% of 330,000 active | AID 2101;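 also: 0% = full enzyme activity and -100% = no enzyme basal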
* marks the source's active call; other numbers are inactive results; u = inconclusive; x = no result given; [ ] = remark or other dose. Calls follow the shape of the dose curve; as a rule, active = well fitted curve in the direction sought with a large enough effect; inconclusive = small, poorly fitted or top-dose-only effect, or another doubt; inactive = no such curve, though single readings can be large; an effect the other way counts as inactive or inconclusive. Unless noted, % is scaled to controls: 0 for no effect and ±100 for the full control effect; potency is read from the fitted curve at half-maximal effect. A portion of the library, and most or all hits are left out here.

SMILES | N370S GC | KAT2A inh
CN(Cc1ccccc1)S(=O)(=O)c1ccc(S(=O)(=O)N(Cc2ccc(F)cc2)C2CCCC2)cc1 | 4% | -3%
COc1ccc(OC)c2[nH]c(=O)c(CCNC(=O)C(C)(C)C)cc12 | 5% | -6%
O=C(Nc1ccccc1)O/N=C1\CCCCC1c1ccc([N+](=O)[O-])cc1[N+](=O)[O-] (stereo not drawn) | 14% | -3%
O=S(=O)(NCCOc1ccccc1)c1ccc2ccccc2c1 | 3% | -2%
Cc1ccc(-c2ccc(SCC(=O)Nc3ccc4c(c3)OCCO4)nn2)cc1 | 28% | -1%
CC(C)C1COC(c2cccn2Cc2ccccc2Cl)=N1 (stereo not drawn) | 13% | -4%
C/C(Cn1nnc([N+](=O)[O-])n1)=N\NC(=O)c1ccccc1O | -3% | -1%
CC(C)c1ccc(/C=C/C(=O)n2nnc3ccccc32)cc1 | 9% | x
Cc1ccc2cc3cc(C(=O)N4CCCCCC4)oc3nc2c1 | 14% | -13%
CC(C)(C)OC(=O)N1CCC(c2c(C(=O)N3CCc4ccccc4C3)cnn2-c2ccc(F)cc2)CC1 | x | -9%
CCOC(=O)c1ccc(NC(=O)C2(c3ccc(Cl)cc3)CCCC2)cc1 | 9% | -19%
CC(C)(C)NC(=O)COC(=O)c1nsc(Cl)c1Cl | -3% | 2%
CCc1ccc(-c2cc(N)n(-c3ccccc3)n2)cc1 | -8% | -9%
CCCCC1CCC(C(=O)OC(C)C(=O)Nc2ccc(NC(C)=O)cc2)CC1 (stereo not drawn) | 0% | -5%
CC(=O)NC1C(=O)N=C(SCC(=O)Nc2sc3c(c2C#N)CCCCCC3)NC1=O (stereo not drawn) | -5% | -8%
CCOc1cc(S(=O)(=O)N2CCN(Cc3ccccc3)CC2)ccc1Br | -8% | x
CCCc1cc2c(=O)c(-c3ccccn3)c(C)oc2cc1O | -2% | -6%
CC(C)C(NC(=O)c1ccc2c(c1)OCO2)C(=O)N/N=C/c1cccs1 (stereo not drawn) | 4% | -5%
COc1c(Cl)cc(C(=O)NCc2ccco2)cc1Cl | 0% | -1%
CCOC(=O)C1CCCN(C(=O)c2sc3nc(-c4ccccc4)cn3c2C)C1 (stereo not drawn) | 8% | 0%
O=C1CCN(c2ncccc2[N+](=O)[O-])CC1 | -2% | -7%
Cc1cccc(N(C)Cc2nnc(-c3cccc(Br)c3)o2)c1 | 5% | u
Cc1ccc(CNC(=O)CS(=O)Cc2nc(-c3ccccc3F)oc2C)cc1 (stereo not drawn) | -5% | -4%
Cc1onc(-c2ccccc2Cl)c1C(=O)NCc1ccc2c(c1)cc(C)n2C | 7% | -8%
O=[N+]([O-])c1ccc(CSc2nc3ncc(Br)cc3[nH]2)cc1 | 0% | -20%
O=C(NCc1cccs1)c1ccc2c(c1)OCCO2 | 6% | -17%
CN(C(=O)COC(=O)c1ccccc1Nc1ccccc1)C1CCS(=O)(=O)C1 (stereo not drawn) | 0% | 2%
NC(=O)C1C(c2ccccc2)=C1c1ccccc1 | -17% | -4%
CCN1CCN(C(=O)c2cc(S(=O)(=O)N3CC(C)CC(C)C3)ccc2Cl)CC1 (stereo not drawn) | -15% | -1%
CCOc1cc(S(=O)(=O)n2cnc(C)c2)ccc1Cl | 9% | 9%
C[C@@H](C(=O)N[C@H](C(=O)O)c1ccccc1)n1nnc2ccccc2c1=O | -2% | 1%
COc1ccccc1N1CCN(CC(=O)Nc2c(C)n[nH]c2C)CC1 | 7%[2.35 µM] | -1%

Some of these compounds in order of molar mass, ascending:
SMILES | N370S GC | KAT2A inh
O=C1CCN(c2ncccc2[N+](=O)[O-])CC1 | -2% | -7%
CCc1ccc(-c2cc(N)n(-c3ccccc3)n2)cc1 | -8% | -9%
CC(C)c1ccc(/C=C/C(=O)n2nnc3ccccc32)cc1 | 9% | x
CCCc1cc2c(=O)c(-c3ccccn3)c(C)oc2cc1O | -2% | -6%
CC(C)C1COC(c2cccn2Cc2ccccc2Cl)=N1 (stereo not drawn) | 13% | -4%
O=S(=O)(NCCOc1ccccc1)c1ccc2ccccc2c1 | 3% | -2%
COc1ccc(OC)c2[nH]c(=O)c(CCNC(=O)C(C)(C)C)cc12 | 5% | -6%
C[C@@H](C(=O)N[C@H](C(=O)O)c1ccccc1)n1nnc2ccccc2c1=O | -2% | 1%
O=[N+]([O-])c1ccc(CSc2nc3ncc(Br)cc3[nH]2)cc1 | 0% | -20%
CCCCC1CCC(C(=O)OC(C)C(=O)Nc2ccc(NC(C)=O)cc2)CC1 (stereo not drawn) | 0% | -5%
Cc1ccc(-c2ccc(SCC(=O)Nc3ccc4c(c3)OCCO4)nn2)cc1 | 28% | -1%
Cc1onc(-c2ccccc2Cl)c1C(=O)NCc1ccc2c(c1)cc(C)n2C | 7% | -8%
Cc1ccc(CNC(=O)CS(=O)Cc2nc(-c3ccccc3F)oc2C)cc1 (stereo not drawn) | -5% | -4%
CN(C(=O)COC(=O)c1ccccc1Nc1ccccc1)C1CCS(=O)(=O)C1 (stereo not drawn) | 0% | 2%
CCOc1cc(S(=O)(=O)N2CCN(Cc3ccccc3)CC2)ccc1Br | -8% | x
CC(=O)NC1C(=O)N=C(SCC(=O)Nc2sc3c(c2C#N)CCCCCC3)NC1=O (stereo not drawn) | -5% | -8%

(listing goes on)
SMILES | N370S GC | KAT2A inh
CC(=O)c1cccc(N(CC(=O)NC2CCCC2)C(=O)c2csnn2)c1 | -2% | 1%
COc1ccccc1NC(=O)C(=O)c1cn(CC(=O)N2CCCC2)c2ccccc12 | -7% | -24%
CC(Oc1cccc2ccccc12)C(=O)N/N=C/c1cccnc1 (stereo not drawn) | 2% | -2%
Cc1nn(Cc2ccccc2Cl)c2sc(C(=O)OC3CCCC3=O)cc12 (stereo not drawn) | -3% | -7%
CC(C)(C)C1CCC(OCC(O)CN2CCN(c3ccccn3)CC2)CC1 (stereo not drawn) | -9% | -7%
O=C(N/N=C/c1ccc(OCCCF)cc1)c1ccc(C(F)(F)F)cc1 | 8% | 5%
C/C(N)=C(/C#N)C(=O)COC(=O)CCSc1ccccc1 | -1% | -26%
Cc1ccc(C(=O)NCCN(C)C)cc1C | 17% | 3%
CCCn1nnnc1NCc1ccc(N2CCCC2)cc1 | 4% | 1%
O=C(CSCc1cc(=O)n2nc(C3CC3)sc2n1)Nc1ccc(F)cc1 | -14% | -7%
Cc1ccc(NC(=O)Nn2cnnc2)cc1 | 2% | 4%
CC(Sc1nc2cc([N+](=O)[O-])ccc2n1-c1cccc(C(F)(F)F)c1)C(=O)NC(N)=O (stereo not drawn) | 2% | -1%
COc1ccc(NC(=O)CS(=O)(=O)c2cccc(Cl)c2)cc1 | -3% | 3%
CSc1nc2ccc(S(=O)(=O)N3CCOCC3)cc2s1 | -10% | -15%
COc1ccc(-c2ccccc2)cc1NC(=O)c1cccs1 | -5% | -7%
CCC(C(=O)NCc1ccc(F)cc1)N(Cc1cccs1)C(=O)c1snc(C(N)=O)c1N (stereo not drawn) | -6% | -9%
Cc1cccc(/C(N)=N/OC(=O)c2ccccc2Cl)c1 | 11% | -1%
CCc1nn2c(=O)cc(COC(=O)c3cccc(NC(=O)c4ccccc4C)c3)nc2s1 | x | 26%
CCCn1c(=O)c2sccc2n2c(CCCC(=O)N3CCN(c4ccccc4)CC3)nnc12 | x | -1%
Cc1ccc(C(=O)OC(C)C(=O)NC2CCCCC2C)cc1S(=O)(=O)N1CCOCC1 (stereo not drawn) | -3% | 0%
COc1cc(C2CC(=O)Oc3cc(C)cc(C)c32)cc(OC)c1OC (stereo not drawn) | -1%[89.1 µM] | -2%
O=C(CSC(=S)N1CCCC1)Nc1ncc(Cl)cc1Cl | -17% | -3%
Cc1cccc(OCc2nnc(SCC(=O)Nc3ccc(C)c(C)c3)o2)c1 | 8% | 2%
O=C(CN1c2ccccc2S(=O)(=O)c2ccccc21)NCc1ccccc1 | -11% | -8%
Clc1cccc(Cl)c1COn1nnc2ccccc21 | 3% | -3%[0.501 µM]
C=C1CCC2C(C)(C)[C@@H](O)CC[C@@]2(C)[C@@H]1COc1ccc2ccc(=O)oc2c1 (stereo partly drawn) | 2% | -1%
Cc1oc(-c2ccc(Cl)cc2)nc1CS(=O)CC(=O)NCCCN1CC(C)CC(C)C1 (stereo not drawn) | -1% | -10%
CCOC(=O)CN1NC2(CCCCCCC2)NC1=S | 0% | -11%
CCN(CC)CCCNC(=O)C1CCN(C(=O)c2oc3cc4sc(N(C)C)nc4cc3c2C)CC1 | 4% | -5%
Cc1cccc(C(=O)Nc2cccc(C(=O)N/N=C/c3ccccn3)c2)c1 | -2% | -23%
CC1(C)Cc2c(C#N)c(NCCCO)nc(-c3ccccc3)c2CO1 | 0% | -9%
O=C(COC(=O)C1C2CC3OC(=O)C1C3C2)Nc1ccccc1 (stereo not drawn) | u | -24%
COc1ccc(N2CCN(C(=O)c3ccc(CSc4ccccc4)cc3)CC2)cc1 | 10% | -5%
CCOC(=O)c1[nH]cnc1C(=O)Nc1ccc(C)cc1 | 2% | 5%
CCCCCSc1nc2c(c(=O)[nH]c(=O)n2C)n1CCc1ccccc1 | -2% | -5%
O=C(CNS(=O)(=O)c1ccccc1)OCC(=O)c1ccc(OC(=O)c2ccccc2)cc1 | x | -2%
CC(C)C[C@H](NC(=O)N1CC(=O)Nc2ccccc21)C(=O)N[C@@H](Cc1c[nH]c2ccccc12)C(=O)O | 0% | -3%
CCOc1ccccc1NC(=O)C1CCN(S(=O)(=O)c2ccc3[nH]c4c(c3c2)CCCCC4)CC1 | x | -10%
COC(=O)C[C@H](NC(=O)Cn1cnc2c(SC)nc(N)nc21)C(=O)OC | x | 1%
O=C(NC12CC3CC(CC(C3)C1)C2)c1cccnc1Cl | -2% | 0%
CN(C)S(=O)(=O)c1ccc(N2CCCC2)c(C(=O)OCC(=O)NC2(C#N)CCCCC2)c1 | 5% | 3%
COc1ccc(OC)c(C(Nc2ccccc2)P(=O)(OC(C)C)OC(C)C)c1 (stereo not drawn) | 12% | 0%
CC(C)CC(=O)/C=C/n1c(=S)oc2ccccc21 | 5% | 2%
CC(C)[C@H](NC(=O)c1ccccc1)C(=O)NCCc1ccccc1 | -15% | -6%
CCOC(=O)c1c2ccccc2[n+]([O-])n1[C@@H](C)C(N)=O | -19% | -4%
O=C(CC1CCCCC1)NCc1ccc(Cl)cc1 | -8% | 1%
Cc1ccccc1N(C(=O)Cc1cccs1)C(C(=O)NC1CCCCC1)c1cn(C)nc1C (stereo not drawn) | -2% | -4%
Cc1ccc(-c2nsc3c(N4CCC(C(N)=O)CC4)ncnc23)cc1 | 3% | 0%
Cc1c(C(=O)NC2CCCc3ccccc32)cccc1[N+](=O)[O-] (stereo not drawn) | -4% | -4%
CC(NC(=O)NCCCC(=O)O)(C(F)(F)F)C(F)(F)F | 4% | -11%
C/C(=N\NC(=O)c1ccco1)c1ccc(C(=O)O)s1 | -3% | -10%
CCOC(=O)C1CCN(C(=O)c2ccc(OCC(=O)Nc3cccc(C(F)(F)F)c3)c(OC)c2)CC1 | -8% | -7%
CCCCN(CC)CCNC(=O)c1cc2c(=O)[nH]c3ccccc3c2s1 | -1% | 0%
CSc1sc(C(=O)O)c(C)c1C(C)=O | 5% | -1%
CCOCCCNC(=O)C1CCCN1C(=O)Nc1ccccc1[N+](=O)[O-] (stereo not drawn) | 9% | 0%
CC(C)Cc1nn2c(=O)cc(COC(=O)c3ccc(NC(=O)c4cccs4)cc3)nc2s1 | x | 16%

Other entries follow:
SMILES | N370S GC | KAT2A inh
CC1CC(C)(C)N(C(=O)CN2CCN(C)CC2)c2ccccc21 (stereo not drawn) | 1% | 1%
Cc1ccc(Nc2nc(N)nc(COC(=O)C3=COCCO3)n2)cc1 | x | 0%
CN=C(Nc1cc(C)nn1CCC#N)c1ccc(F)cc1 | 6% | -2%
COc1cc(NC(=S)NCCCO)c(OC)cc1Cl | 8% | 19%
Nc1nnnn1/N=C/c1ccccc1OCc1ccccc1 | u | -1%
CCCNC(=O)c1ccc(COc2ccc(C)cc2)o1 | 2% | -1%
COc1ccccc1C(=O)NC(=O)COC(=O)c1ccc(Cl)nc1 | 2% | -6%
COc1cccc(CNC(=O)CCNC(=O)N2CCn3c2nc2ccccc23)c1 | -3% | -7%
Cc1ccc(C(=O)OCC(=O)NC2CC2)s1 | x | -6%
CCCCN1C[C@H](O)[C@@H](O)[C@H](O)[C@H]1CO | x | -6%
CCOc1ccc2[nH]c(=O)c(CN(CC3COCCO3)C(=O)C3CC3)cc2c1 (stereo not drawn) | 9% | -3%
CCC(=O)Nc1cccc(C2=NN(c3ccccc3)C(c3ccc(OC)cc3)C2)c1 (stereo not drawn) | u | -11%
COc1ccc(N2CCN(S(=O)(=O)c3ccc(Cl)c(C(F)(F)F)c3)CC2)cc1 | -1% | 9%
O=C(Nc1cccc(F)c1)c1cccc(S(=O)(=O)N2CCOCC2)c1 | -3% | 0%
O=C(NC(=S)Nc1ccc(CN2CCOCC2)cc1)c1ccco1 | 3% | -9%
COc1cccc(C(=O)N2c3cc(C)ccc3OCC2C(C)(C)C)c1 (stereo not drawn) | -2% | -11%
Cc1ccc(/C=N/n2c(C)nnc2C)s1 | 5% | -12%

Compound activity from PubChem BioAssay.
